# Kir21 block – blocks the mouse Kir2.1 inward-rectifier potassium channel; P35561; HEK293-Kir2.1, FluxOR thallium flux fluorescence; active compounds read low; B-score at 10 µM; 310,000 compounds, 0.85% hits; AID 1672;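 active = fluorescence ratio B-score at or below minus 3 SD of library scores, with starting-brightness B-score within 2 SD, cut at about -4.2 in these data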;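 note: channel flux triggered by added potassium and thallium sulfate stimulus; B-score of peak minus minimum fluorescence over baseline after thallium stimulus; more negative B-score means stronger Kir2.1 block with less thallium influx; some compounds called inactive have numbers as strong as hits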
# Target sequence (P35561 whole entry, looked up): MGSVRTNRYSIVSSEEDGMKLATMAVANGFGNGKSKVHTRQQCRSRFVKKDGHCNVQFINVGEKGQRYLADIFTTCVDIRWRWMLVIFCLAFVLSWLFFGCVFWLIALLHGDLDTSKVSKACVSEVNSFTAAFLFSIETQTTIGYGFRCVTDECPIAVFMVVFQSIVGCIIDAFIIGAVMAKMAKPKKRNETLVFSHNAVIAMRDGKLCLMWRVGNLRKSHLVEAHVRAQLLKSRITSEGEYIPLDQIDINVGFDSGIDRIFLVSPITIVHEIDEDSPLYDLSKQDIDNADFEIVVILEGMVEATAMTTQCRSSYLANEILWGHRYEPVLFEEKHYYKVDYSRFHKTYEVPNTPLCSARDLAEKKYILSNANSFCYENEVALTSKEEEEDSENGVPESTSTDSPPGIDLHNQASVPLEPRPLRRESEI
# Active calls of the source: *.
Kir21 block	canonical_smiles
-0.02	Cc1ccc(C(=O)N2CCN(c3ccc(NC(=O)c4ccc5c(c4)OCCO5)cc3)CC2)cc1
1.57	Cc1ccc(NC(=O)Cn2cnc3c(nnn3Cc3ccc(F)cc3)c2=O)cc1
0.07	COc1ccc(C(=O)Nc2ccc(S(=O)(=O)N3CCOCC3)cc2)cc1[N+](=O)[O-]
-0.08	Cc1cc2c(cc1C)C(c1cccc(F)c1)CC(=O)N2 (stereo not given)
0.63	CC(C)c1csc(CN2CCN(Cc3ccc(F)cc3)C(CCO)C2)n1 (stereo not given)
1.04	Cc1cccc(N2CCN(C(=S)NCc3ccco3)CC2)c1C
0.06	COC(=O)c1ccc(NC(=O)CN(C)Cc2cccc(F)c2)cc1
0.02	COc1ccc(CCNC(=O)COC(=O)c2cc(OC)c(OC)cc2OC)cc1
0.48	C/C(=N\OC(=O)c1c(-c2ccccc2Cl)noc1C)c1nccs1
1.45	COc1cc(C(=O)Oc2c(CN3CCOCC3)cc(Cl)c3cccnc23)cc(OC)c1OC
-2.12	CCCc1nc2sc3c(=O)n(N)cnc3c2c2c1COC(C)(C)C2
-1.32	Cc1cc(NC(=O)Cc2cccs2)nn1CC(=O)NCc1ccco1
1.02	CSc1ccccc1C(=O)Nc1cccc([N+](=O)[O-])c1C
-1.06	COc1ccc(OC)c(C2N(c3ccccn3)C(=O)C3CCCN32)c1 (stereo not given)
0.2	COc1cc2ncnc(NCc3cccc(F)c3F)c2cc1OC
0.44	CCSc1n[nH]c(=S)s1
-0.61	Clc1cccc(CN2CCN(c3ncccn3)CC2)c1Cl
-0.81	O=C1NC(CCc2ccccc2)C(=O)N1Cc1ccc(Br)cc1 (stereo not given)
-0.88	Cc1cc(C(=O)N2CCN(C(=O)C3CCCO3)CC2)no1 (stereo not given)
0.01	CN1CCN(C(=O)Nc2cccc3ccccc23)CC1
0.77	Cc1ccccc1Cn1cc(NC(=O)c2nc3ncccn3n2)cn1
1.56	CCn1c2ccccc2c2cc(NC(=O)COC(=O)c3cc(S(N)(=O)=O)c(Cl)cc3Cl)ccc21
0.49	C/C(=N\NC(=O)c1c(Cl)c(C)nn1C)c1cccc(NC(=O)COc2ccc(Cl)cc2)c1
0	COc1ccc(NC(=O)CCS(=O)(=O)c2ccc3nc(C)sc3c2)cc1OC
-0.41	CCN1C(=O)[C@H]2[C@@H](c3ccc(SC4CCCCC4)cc3)N[C@@](CC(C)C)(C(=O)OC)[C@H]2C1=O
0.16	O=c1c2ccc([N+](=O)[O-])cc2ncn1CCOc1cccc(Br)c1
0.9	COc1ccc(N(CC(=O)N2CCN(c3ccccc3)CC2)S(=O)(=O)c2c(C)noc2C)cc1
1.71	COc1ccc(N2CCN(C3CCCN(Cc4ccc(F)c(F)c4)C3)CC2)cc1 (stereo not given)
0.16	Nc1nc(NC(=O)c2cccc(S(=O)(=O)N3CCCCCC3)c2)nc(-c2ccccc2)n1
-0.91	O=C(Nc1cccc(-n2cccn2)c1)C1CCCN(Cc2ccc(C#CCCO)cc2)C1 (stereo not given)
-1.81	Fc1cc(F)cc(NC(=S)N2CCN(c3ncccn3)CC2)c1
-2.46	Cc1cc(C)c(S(=O)(=O)Nc2ccc(O)cc2)cc1C
0.13	Cc1ccc2c(c1)N(CC(=O)NC1CCCC1)C(=O)CO2
0.21	COc1ccc(CC(=O)N/N=C/C=C/c2cccc([N+](=O)[O-])c2)cc1OC
-1.07	COc1ccc(NC(=O)COC(=O)C2CC(=O)N(Cc3ccc(C)cc3)C2)cc1 (stereo not given)
0	CCn1cc(C(=O)NCC2COc3ccccc3O2)c2cc(OC)c(OC)cc2c1=O (stereo not given)
1.13	COc1ccccc1N1CCN(S(=O)(=O)c2ccc(-n3cnnn3)cc2)CC1
-1.08	Cc1cn(CC2COC(C)(C)O2)c(=O)[nH]c1=O (stereo not given)
1.19	COc1ccc2c(CC(=O)N[C@@H](Cc3ccccc3)C(=O)O)cc(=O)oc2c1
0.24	Cc1cccc(C)c1NC(=O)Nc1ccc2c(c1)OCO2

# Overlap with the part before: three entries; new compounds follow.
Kir21 block	canonical_smiles
-1.08	Cc1cn(CC2COC(C)(C)O2)c(=O)[nH]c1=O (stereo not given)
1.19	COc1ccc2c(CC(=O)N[C@@H](Cc3ccccc3)C(=O)O)cc(=O)oc2c1
0.24	Cc1cccc(C)c1NC(=O)Nc1ccc2c(c1)OCO2
0.51	O=C(Nc1nccs1)c1ccc(-c2ccc([N+](=O)[O-])cc2)o1
-2.06	O=c1cc(O)nc(SCc2ccc(Cl)cc2)[nH]1
1.46	Cc1ccc(C(=O)CC2SC(N)=NC2=O)cc1 (stereo not given)
-2.42	COCCCNC(=O)CN1C(=O)COc2ccc(S(=O)(=O)N3CC(C)CC(C)C3)cc21 (stereo not given)
0.54	CCc1cccc(OCCn2ccnc2)c1
3.52	O=C(O)c1cccc(S(=O)(=O)Nc2ccccc2-c2ccccc2)c1
-1.18	Clc1ccc(CNc2ccccn2)cc1
-1.46	O=C(CCl)Nc1cccc(Oc2cnccn2)c1
-2.17	COc1ccc(-c2cc(CCCC(=O)NCc3ccccn3)no2)cc1
1.26	CC(C)c1ccc(NC2CCCN(C(=O)CSc3nncn3C)C2)cc1 (stereo not given)
-0.79	COCCNC(=O)c1c(N)n(/N=C/c2ccc(F)cc2)c2nc3ccccc3nc12
-0.79	CC1(C)OC(=O)C(=CNCC(O)c2ccccc2)C(=O)O1 (stereo not given)
0.91	CC(NC(=O)C1CSC2(C)CCC(=O)N12)c1ccccc1Cl (stereo not given)
-1.16	CCOc1ccc(CN(C)C(C)C(=O)Nc2ccc([N+](=O)[O-])cc2Cl)cc1OC (stereo not given)
2.18	O=C(COC(=O)Cc1cccs1)Nc1ccccc1
2.66	CC(C)CCn1c(SCCc2ccccc2)nc2c1c(=O)[nH]c(=O)n2C
1.51	O=C(Cc1ccc([N+](=O)[O-])cc1)NCc1ccccc1Cl
-0.59	NC(=O)Cn1cc(C(=O)COc2ccccc2)c2ccccc21
1.67	CCn1c(SCc2ccc(F)cc2)nc2c(c1=O)SCC2
-1.11	O=C(COc1ccccc1Cl)NC(=O)NC1CCCCC1
-0.33	COc1cccc(CC(=O)OCC(=O)N(C)CC(=O)Nc2ccc(F)cc2)c1
2.25	CCOc1ccc(C(=O)OC(C)CN2CCCCC2)cc1 (stereo not given)
0.02	CC(NC(=O)c1ccc(Cn2cc([N+](=O)[O-])cn2)o1)c1ccccc1 (stereo not given)
0.57	CCOc1cc(C2CC(=O)NC(SCC)=C2C#N)ccc1O (stereo not given)
-1.54	CCOC(=O)C(NS(=O)(=O)c1ccccc1)(C(F)(F)F)P(=O)(OCC(C)C)OCC(C)C (stereo not given)
0.2	O=C(O)c1ccc(COc2c(F)c(F)c(F)c(F)c2F)o1
-0.57	CSc1nc(NC(C)=O)nc(C)c1Br
-1.46	CCc1ccccc1N(CC)C(=O)c1cn(CC)c(=O)c2cc(OC)c(OC)cc12
1.97	CCOCCOC(=O)c1cccc2c1-c1ccccc1C2=O
-1.2	COc1ccc(-c2cc(C(=O)NCCCn3ccnc3)c3ccccc3n2)c(OC)c1
2.13	COc1cccc(-c2nc(-c3ccccn3)no2)c1
1.11	COCCn1nnnc1CN1CCC(O)(c2cccc(C(F)(F)F)c2)CC1
-1.06	Cc1occc1-c1nnc(SCC(=O)c2ccccc2)n1CC1CCCO1 (stereo not given)
-0.07	CC(C)NC(=O)CCn1ccc2cc(S(=O)(=O)N3CCCC3)ccc21
0.11	CC(C)c1cc(C(=O)N2CCCC(Nc3ccc(F)c(F)c3)C2)nc(N)n1 (stereo not given)
-2.29	COC(=O)C1CCN(C(=O)COC(=O)c2ccc3[nH]c4c(c3c2)CCCC4)CC1
0.22	Nc1ccc(CN2CCOCC2)cc1
-0.42	Cc1ccc(S(=O)(=O)N2CCOCC2)cc1C(=O)NCC1CCCO1 (stereo not given)
0.82	Cc1nc2ccccc2cc1OCc1ccc(F)cc1
0.19	CN(C)S(=O)(=O)c1ccc(C(=O)Nc2nnc(SCc3ccccc3)s2)cc1
-0.41	CN(CC(=O)Nc1ccccn1)S(=O)(=O)c1ccc(Cl)cc1
-0.06	CC(C)(C)NC(=O)C(OC(=O)c1cccs1)c1ccc(F)cc1 (stereo not given)
-2.04	CC(CC(=O)Nc1ccc2c(c1)OCCO2)c1ccccc1 (stereo not given)
0.52	Cc1ccc(C2=[N+]([O-])C3(CCCCC3=O)N(O)C2(C)C)cc1 (stereo not given)
0.56	CCC(c1nnnn1C1CCCCC1)N1CCN(C2CCCC2)CC1 (stereo not given)
-4.14	Cc1ccccc1NC(=O)C1CC(=O)N(c2ccc3c4c(cccc24)CC3)C1 (stereo not given)
-0.04	Brc1cnc2nc[nH]c2c1
2.06	Cc1sc2ncnc(-n3nnc4ccccc43)c2c1C
-0.28	CCn1c(CCNC(=O)c2ccccc2Cl)n[nH]c1=S
0.4	COc1ccc(N(C(=O)Cn2nnc3ccccc32)C(C(=O)NCc2ccco2)c2cccnc2)cc1 (stereo not given)
1.51	O=C(O)CNC(=S)N(Cc1ccccc1Cl)C1CCCCC1
-1.6	CC(NC(=O)c1cccs1)c1ccc2c(c1)OCO2 (stereo not given)
0.24	Cc1cc(C)c(S(=O)(=O)NCC23C=CC(O2)C2C(=O)N(c4ccccc4)C(=O)C23)c(C)c1 (stereo not given)
0.35	NNC(=S)Nc1ccccc1Cl
-0.11	CS(=O)(=O)N(CCc1ccccc1)CC(=O)NCc1ccccc1
1.47	CCOc1ccc(NC(=O)C2CCCN(S(=O)(=O)c3cnc[nH]3)C2)cc1 (stereo not given)
0.48	COc1ccc(-c2nnn(CC(=O)c3ccc4c(c3)OCCO4)n2)cc1OC
0.02	COC(=O)C1=C(CN2CCc3ccccc32)NC(=O)NC1c1cc(C)ccc1C (stereo not given)
-0.99	O=C(CSc1nnc(-c2cnccn2)n1Cc1ccco1)c1ccc2ccccc2c1
0.3	CCOC(=O)C1=C(c2ccccc2)O/C(=C(/C#N)C(F)(F)F)S1

# Shown tab-delimited: part of the list above
Structure	Kir21 block
Cc1ccc(NC(=O)Cn2cnc3c(nnn3Cc3ccc(F)cc3)c2=O)cc1	1.57
Cc1cc(C(=O)N2CCN(C(=O)C3CCCO3)CC2)no1 (stereo not given)	-0.88
Fc1cc(F)cc(NC(=S)N2CCN(c3ncccn3)CC2)c1	-1.81

# Part of the list above, field by field:
COc1ccc(-c2nnn(CC(=O)c3ccc4c(c3)OCCO4)n2)cc1OC
  Kir21 block: 0.48
COC(=O)C1=C(CN2CCc3ccccc32)NC(=O)NC1c1cc(C)ccc1C (stereo not given)
  Kir21 block: 0.02
O=C(CSc1nnc(-c2cnccn2)n1Cc1ccco1)c1ccc2ccccc2c1
  Kir21 block: -0.99
CCOC(=O)C1=C(c2ccccc2)O/C(=C(/C#N)C(F)(F)F)S1
  Kir21 block: 0.3

# (continued)
Kir21 block	canonical_smiles
0.03	COc1ccc(S(=O)(=O)n2nc(C)cc2C)cc1OC
-1.88	CCN(CC(=O)NCc1ccccc1Cl)CC(=O)Nc1c(F)cccc1F
-0.16	O=C(N/N=C/c1ccncc1)c1ccc(NC(=O)c2cccc(Cl)c2)cc1
0.71	Cc1cc(C)cc(NC(=S)NCC2CCCO2)c1 (stereo not given)
-0.68	CCOC(=O)c1cc2sc(C)cc2n1CC(=O)Nc1cccc(C)c1C
-0.35	NC(=O)c1ccc(Oc2cccc3cccnc23)c([N+](=O)[O-])c1
1.63	N#CC1=C(N)N2C(=C(C#N)C13CCCCC3)SC1CCCCC12O (stereo not given)
-0.19	COc1cc(CNCc2cccnc2)ccc1OCC(=O)NC1CCCCC1
0.1	COc1ccccc1CNc1nc(SC)ncc1CO
0.11	CCOc1c(Br)cc(Br)cc1/C=C1\SC(N)=NC1=O
0.14	CCOC(=O)c1c(C)[nH]c(C)c1S(=O)(=O)N1CCN(c2ccc([N+](=O)[O-])cc2)CC1
-0.14	CC(=O)Nc1ccc(S(=O)(=O)N2CCN(c3ccc(C)c(Cl)c3)CC2)cc1
1.38	Cn1cccc1C(=O)NNC(=O)c1ccccc1Br
-1.16	CCOc1ccc(NC(=O)CSc2nc3nc4c(cc3c(=O)n2CC)COC(C)(C)C4)cc1
0.23	Cc1ccccc1NC(=O)CSc1ccc(-c2ccccn2)nn1
0.01	O=C(NCc1ccccc1)C1=C[C@@H](c2ccc(C(F)(F)F)cc2)C[C@@H](OCCCCO)O1
1.12	NC(=O)c1ccc(NC(=O)CCCc2nc(-c3ccccc3Cl)no2)cc1
-0.59	COc1ccc(N(C(=O)c2snc(C(N)=O)c2N)C(C(=O)NC2CCCC2)c2cccs2)c(OC)c1 (stereo not given)
0.87	COc1cc2c(cc1OC)CN(CC(=O)Nc1ccccc1C#N)CC2
-0.02	CCOC(=O)c1sc2nccc(OC)c2c1N=CNOC
-0.56	COc1ccc(C2C(C(=O)c3ccc(C)o3)=C(O)C(=O)N2Cc2cccnc2)cc1 (stereo not given)
0.1	CCSc1nsc(SCC)c1C(N)=O
-1.75	COc1ccc2oc(C(=O)OC(C)C(=O)NCc3ccccc3)c(C)c2c1 (stereo not given)
0.08	O=C(N/N=C/c1ccoc1)c1cc(Br)ccc1O
0.71	COc1ccc(OCCCC(=O)NNC(=O)c2ccncc2)cc1
-0.02	N#Cc1ccccc1NC(=O)COC(=O)CCc1ccccc1
-0.65	CCC(=O)N(NC1=NS(=O)(=O)c2ccccc21)S(=O)(=O)c1ccc(C)cc1
-1.38	CC(C)c1nc(SCC(=O)c2c[nH]c3ccccc23)n[nH]1
-0.13	COc1cc(C=O)ccc1Oc1cnccn1
-3.01	COc1ccc(/C(N)=N/OC(=O)c2ccc(C)c([N+](=O)[O-])c2)cc1
-1.45	CCCNC(=O)CSc1nc2[nH]ncc2c(=O)[nH]1
-0.17	CCOC(=O)c1c(NC(=O)c2ccc(Br)o2)sc2c1CCCC2

# Bioassay records (PubChem BioAssay)

# Not all compounds are listed, and most or all hits are left out here.
